Ecoli rRNA inh: inhibitors of bacterial rRNA selective over humanized ribosomes. E. coli WT GFP vs humanized-ribosome RFP mutants, fluorescence, 24 h; stronger effect = lower value; DMSO median 0, no signal -100. GFP signal change (wild-type ribosome), % (no concentration beside the values). 350,000 compounds, 1.6% hits. AID 720706;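 active = significant combined selectivity score with lowered wild-type GFP, culture density cut under 30%, mutant RFP and density less affected; inactive = any of these conditions unmet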; note: one replicate is shown; some compounds called inactive have numbers as strong as hits
MLL AF4-AF9 inh: inhibitors of human MLL-AF4/AF9 interaction | P42568 | 350,000 compounds, 0.47% hits | AlphaScreen, biotin-AF4 peptide binding to FLAG-AF9 | AID 651704 | inhibition, % at 10 µM;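 active = every replicate reaching a set inhibition limit, whatever the replicate mean, cut at about 25% in these data; inconclusive = mean inhibition reaches that limit but some replicates miss it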;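 note: 0% = plate neutral control median and 100% = total signal loss; the record names both 10 and 1 µM as test concentration; the first replicate is given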
Target sequence (P42568 whole entry, looked up): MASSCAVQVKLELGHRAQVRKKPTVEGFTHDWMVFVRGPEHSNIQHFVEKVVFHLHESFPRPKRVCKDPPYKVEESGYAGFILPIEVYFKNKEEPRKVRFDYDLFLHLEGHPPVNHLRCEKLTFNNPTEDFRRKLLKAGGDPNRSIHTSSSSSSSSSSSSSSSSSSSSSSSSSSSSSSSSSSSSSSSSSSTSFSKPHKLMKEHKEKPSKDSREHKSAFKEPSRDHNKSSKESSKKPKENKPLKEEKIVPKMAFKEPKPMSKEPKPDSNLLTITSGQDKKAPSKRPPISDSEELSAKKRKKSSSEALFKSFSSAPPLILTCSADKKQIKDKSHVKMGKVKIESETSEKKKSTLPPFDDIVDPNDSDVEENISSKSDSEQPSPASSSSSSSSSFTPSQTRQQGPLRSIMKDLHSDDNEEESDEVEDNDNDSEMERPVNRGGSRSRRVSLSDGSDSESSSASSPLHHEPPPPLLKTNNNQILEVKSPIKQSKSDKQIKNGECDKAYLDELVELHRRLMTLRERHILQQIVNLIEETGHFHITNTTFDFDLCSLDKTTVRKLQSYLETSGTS
RanGTP-Imp inh: disruptors of Ran-importin-beta complex formation – biochemical, FRET, CFP-Ran, YFP-importin-beta, homogeneous, primary screen. 300,000 compounds, 1.1% hits. cell-free CFP-Ran/YFP-importin-beta FRET ratio. inhibition, % (test concentration not listed);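 active = most replicates above 15%; inconclusive = exactly half above 15%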;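 note: 0% = DMSO wells and 100% = Ran loaded with GDP instead of GTP; wells of about 40 µL received 100 nL stock; the first replicate is given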
Beta apoptosis: blocks beta cell apoptosis. protection from apoptosis, % (test concentration not listed). INS-1E cytokine-induced death, ATP luminescence, 48 h; percent of positive-control rescue, neutral wells zero. 300,000 compounds, 0.8% hits;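 active = all replicates at 75% or more, or half of them and the mean; inconclusive = half reach 75% but not the mean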;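 note: 0% = cytokine-treated negative control wells and 100% = positive control rescue; higher means more ATP so stronger rescue from cytokine killing; wells of about 40 µL received 100 nL stock; the first replicate is given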
T cruzi repl: blocks replication of Trypanosoma cruzi; T. cruzi beta-gal in NIH3T3, luminescence, 90 h; inhibition, % (concentration not given with the values); 300,000 compounds, 1.4% hits; AID 1885;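 active = mean inhibition across valid replicates above about 55%, limit read from the data; inconclusive = mean below that limit but half or more replicates reach it; inactive = mean below it, under half of replicates reach it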;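 note: signal also drops with host cell toxicity which is not excluded here; 0% = plate median of DMSO wells and 100% = zero luminescence signal; higher percent means less beta-gal luminescence so fewer parasites; stock transfer was 50 nL into about 50 µL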
Vif A3G: HIV-1 Vif–A3G interaction blockers – biochemical, TR-FRET, GST-Vif 1-94, biotin-A3G peptide, dose response retest, primary screen (AID 1117319) | inhibition, %; hits with a dose series show IC50 in µM | TR-FRET GST-Vif / biotin-A3G peptide binding; higher % means a stronger effect; test concentration not given here; strong numbers were not always called active | 260,000 compounds, 0.57% hits;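 active = above the screen mean plus three standard deviations and confirmed in dose response; inconclusive = results disagree or hit not tested in dose response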;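 note: Vif residues 1-94 fused to GST binding biotinylated APOBEC3G peptide 110-148; 0% = full assay without inhibitor and 100% = GST in place of GST-Vif; retest series ran down from 100 µM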
Calb FLC: C. albicans growth modulation with fluconazole. C. albicans CaCi-2 (fluconazole-resistant clinical isolate) + fluconazole, Alamar Blue growth, 48 h. growth inhibition, % (test concentration not listed). 300,000 compounds, 0.57% hits;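 active = most replicates above 75%; inconclusive = exactly half above 75%; inactive = most below 75%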;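 note: all wells also contain fluconazole at 8 µg/ml as a sub-toxic cotreatment; 0% = median of DMSO wells and 100% = median of geldanamycin control wells; wells of about 8 µL received 7.5 nL stock; the first replicate is given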
Bfl-1 A1 inh: inhibitors of the anti-apoptotic protein A1, read as caspase activation. 330,000 compounds, 0.066% hits. MEF A1-2A-BIM cells, Caspase-Glo 3/7 luminescence, 3 h; percent of clofoctol response, vehicle zero. caspase activation, % (no concentration beside the values);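 active = over half of replicate activation scores above 10%, or exactly half above 10 with the replicate mean above 10; inconclusive = replicate mean below 10 yet half the replicates above 10; inactive = over half of replicates below 10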;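 note: wells of about 30 µL received 50 nL stock; many hits fall short of the cut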
Ecoli rRNA inh OD600: also measured in Ecoli rRNA inh; calls as there; OD600 change, %; measured here: OD600 growth;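 optical density of the mix in the first replicate; 0 = DMSO median and -100 = no signal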
Ecoli rRNA inh RFP: also measured in Ecoli rRNA inh; calls as there; RFP signal change, %; measured here: RFP humanized mutant strains;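 first replicate; 0 = DMSO median and -100 = no signal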
Active calls of the source: *; u = inconclusive; x = not tested or not shown; & = joins results of further samples.

SMILES	Ecoli rRNA inh	Ecoli rRNA inh OD600	Ecoli rRNA inh RFP	MLL AF4-AF9 inh	RanGTP-Imp inh	Beta apoptosis	T cruzi repl	Vif A3G	Calb FLC	Bfl-1 A1 inh
O=C(NCCN1CCC(Cc2ccccc2)CC1)C1CCCN(S(=O)(=O)c2cnc[nH]2)C1 (stereo unspecified)	13	7	3.6	-12	1.0	-1	-9	-1%	-1	0.8
COCCN(CC(=O)NCc1ccc(F)cc1)C(=O)CCC(=O)Nc1nccs1	x	x	x	x	u	-5	-6	2%	-4	0.5
CCOC(=O)c1cc2c(ccc3nc(C)c(C)c32)[nH]c1C	-10	-11	-0.5	-1.3	-23	-2	13	-3%	34	-0.3
Cc1ccc(C(=O)Nc2ccc(S(=O)(=O)N3CCN(C)CC3)cc2)cc1	x	x	x	x	4.1	0	0	0%	-14	-0.4
Cc1ccc(C)c(NC(=O)CSc2nc3ccccc3nc2N2CCOCC2)c1	6	17	-1.5	-7.9	-1.6	22	-6	x	-1	-0.1
CC1CCN(C(=O)Nc2ccc3nsnc3c2)CC1	x	x	x	x	-3.8	13	5	u	-9	-0.3
COc1ccccc1NC(=O)N(Cc1ccco1)Cc1cc2c(C)ccc(C)c2[nH]c1=O	x	x	x	x	4.5	x	14	u	-4	x
CCc1ccc(/C=C2/SC(=S)N(CCC(=O)Nc3ccc(C(=O)O)cc3)C2=O)cc1	5	10	-1.9	1.2	-3.3	-9	-21	x	8	1.1
Cc1cc([N+](=O)[O-])c(C)cc1-c1ccc(/C=N/n2cnnc2)o1	0	8	-0.9	-1.6	-2.7	-3	-7	2%	-10	0.9
Cc1cc(C(C)(C)C)cc(C)c1COC(=O)C1CCC(=O)N1 (stereo unspecified)	x	x	x	x	4.8	-4	-17	1%	-4	-0.8
CN(C(=O)COc1ccc(Cl)cc1Cl)c1nnc(C23CC4CC(CC(C4)C2)C3)s1	2	15	-1.4	6.2	6.5	-8	7	u	9	0.9
O=C(O)C1CCN(C(=O)c2ccccc2N2C(=O)[C@@H]3Cc4c([nH]c5ccccc45)C(c4cccc(Cl)c4)N3C2=O)CC1 (stereo partly specified)	-20	-24	-18	0.6	-0.1	0	6	x	0	-0.5
CCc1nc2ccccc2c(C(=O)Nc2ccc(C)cc2)c1C	2	3	-1.3	-15	-0.8	-2	-1	x	-3	0.9
CC1=CCC(C(=O)O)C(C(=O)Nc2nc3ccc(S(C)(=O)=O)cc3s2)C1 (stereo unspecified)	x	x	x	x	1.6	-3	-9	-5%	u	-0.4
Nc1nc(-c2ccco2)nc(N2CCCCC2)n1	x	x	x	x	u	-4	-12	-1%	6	-0.2
COc1cccc(OC)c1C(=O)N1CCNCC1	9	11	6.6	2.7	1.1	4	-9	x	0	1.0
O=C1C(Oc2ccc(Cl)cc2)C(c2ccc3c(c2)OCO3)N1CC1CCCO1 (stereo unspecified)	-23	-34	-8.9	1.8	-2.5	5	-2	2%	-1	0.8
COCC(=O)N1CCC(Oc2cccc(C(=O)NCc3ccccn3)c2)CC1	5	2	1.5	-2.2	-0.8	-1	-1	x	-20	0.5
COc1ccccc1NC(=S)NCCc1ccc(F)cc1	-10	-12	0.9	0.2	2.2	4	-12	1%	-3	0.2
CC(C)=CC(=O)N1CCC(N2CCC(C(=O)NCC3CCCO3)CC2)CC1 (stereo unspecified)	8	14	-1.7	-0.8	1.2	14	-11	x	1	-0.7
O=C(NNC(=O)c1ccc(S(=O)(=O)N2CCCCC2)cc1)c1ccccc1	1	14	-1.2	0.5	0.8	-4	4	x	1	0.4
O=S(=O)(c1ccc(S(=O)(=O)N2CCN(C/C=C/c3ccccc3)CC2)cc1)N1CCCC1	x	x	x	x	0.5	-1	48	8%	9	0.9
CCC(C)Sc1nc2c(c(=O)[nH]c(=O)n2C)n1CCc1ccccc1 (stereo unspecified)	x	x	x	x	2.8	3	33	10%	-18	0.3
O=C(NNS(=O)(=O)c1ccccc1F)c1sccc1-n1cccc1	11	1	-0.7	-1.3	-1.4	-9	2	5%	-2	0.3
COc1ccc(S(=O)(=O)N2CCOC23CCN(S(=O)(=O)c2cc(C)ccc2OC)CC3)cc1	4	3	1.4	2.1	-0.5	x	4	-2%	8	0.6
Fc1ccccc1OCCn1c(=S)[nH]c2ccccc21	-35	-40	-16	-0.9	2.2	19	6	x	-12	0.7
CC(C)[C@@H]1NC(=O)c2cc([N+](=O)[O-])cc(I)c2NCCC[C@@H](C(N)=O)NC(=O)[C@H](CO)NC1=O	2	4	-3.0	-1.3	x	0	x	7%	x	0.3
COc1ccccc1N(Cc1ccccc1)S(=O)(=O)c1cccc(C(=O)Nc2ccc(C)cn2)c1	-13	-11	0.2	0.9	-1.0	23	62*	-12%	7	0.0
CCN(CC)S(=O)(=O)c1cc(-c2nn(C)c(=O)c3ccccc23)ccc1C	x	x	x	x	0.0	11	10	14%	2	-0.1
CCOC(=O)C1CCN(c2nc3c(C)cccn3c(=O)c2/C=C(\C#N)S(=O)(=O)c2ccccc2)CC1	8	-2	5.6	x	6.9	-4	15	x	-4	-0.5
COCCN(CC(=O)Nc1ccccc1C)S(=O)(=O)c1ccc(S(=O)(=O)N2CCCC2)cc1	x	x	x	x	-1.1	0	8	2%	1	2.5
COc1ccc(-c2nnc3sc(C(C)N4C(=O)c5ccccc5C4=O)nn23)cc1 (stereo unspecified)	-45*	-19*	-5.7*	4.0	-1.1	4	-5	4%	4	0.5
O=C(O)CSCC(=O)N1CCCN(c2ccc(C(F)(F)F)cn2)CC1	13	10	2.0	0.3	-3.0	-4	-3	0%	-3	0.1
CC1CCCCC1NS(=O)(=O)c1ccc(S(=O)(=O)NCc2ccncc2)cc1 (stereo unspecified)	x	x	x	x	6.3	77*	-23	-5%	-7	-0.2
Cc1oc(-c2ccccc2Cl)nc1CS(=O)CC(=O)NCc1cccs1 (stereo unspecified)	-5	-19	3.2	-6.6	-2.5	-9	-20	2%	-2	0.0
CCn1nc(C)c(NC(=O)c2ccc(Cl)cc2)c1C	6	8	4.1	-2.1	2.2	-4	-2	5%	16	1.1
CCC1(CC)Cc2ccccc2C(N)=C1C#N	x	x	x	x	4.2	-7	5	31%	9	0.1
O=C(NCc1ccccc1)c1cnc2n(c1=O)CCS2	x	x	x	x	3.0	-4	-15	0%	-3	0.4
O=C(CSc1nnc(-c2c[nH]c3ccccc23)o1)c1ccc(-c2ccccc2)cc1	x	x	x	x	0.8	-1	2	x	0	0.7
COC(=O)CN1C(=S)N(c2ccc(Cl)cc2)C(=O)C1CC(=O)Nc1ccc(F)cc1 (stereo unspecified)	-25*	-14*	4.5*	6.3	3.6	1	-19	x	-1	0.1
O=C(O)c1ccc2c(=O)n3c(nc2c1)/C(=C/c1ccccc1C(F)(F)F)CCCC3	x	x	x	x	-1.4	-3	8	8%	-11	-0.2
CCCCn1c(SCC(=O)N2CCCC2)nc2cc(S(N)(=O)=O)ccc21	9	11	3.5	1.5	7.1	-1	-2	1%	-5	-0.4
CCOC(=O)C1CCCN(S(=O)(=O)c2cc(OCC(=O)NC3CCCCC3)c(C)cc2Cl)C1 (stereo unspecified)	x	x	x	x	2.3	3	6	4%	-5	-0.9
O=C(O)c1ccccn1	21	4	0.9	-4.4	x	-5	x	x	x	0.7
O=C1CC(C(=O)NC2CCCCC2)C2(CCCCC2)O1 (stereo unspecified)	10	19	-1.2	-2.6	2.0	-9	-10	-3%	4	-0.1
COc1cccc(C(=O)Nc2nc(SCc3ccc(Cl)cc3)n[nH]2)c1	8	1	2.3	x	0.3	-3	-3	16%	5	-0.2
Cc1ccc(NC(=S)N2CCCC2)cc1C	21	14	3.5	-2.9	x	1	x	x	-13	1.5
O=C(Nc1cnn(Cc2ccc(Cl)cc2Cl)c1)c1cc(-c2cccs2)on1	x	x	x	x	2.1	15	48	0%	2	-0.1
Cc1cc(=O)oc2cc(NC(=O)c3cccc(S(C)(=O)=O)c3)ccc12	9	14	1.1	1.1	-2.1	-11	-5	x	5	-1.0
NC(=O)c1ccc(CSc2nc3ccccc3s2)cc1	-8	-26	-1.3	-3.7	3.0	x	5	x	3	-4.9

Other entries
SMILES	Ecoli rRNA inh	Ecoli rRNA inh OD600	Ecoli rRNA inh RFP	MLL AF4-AF9 inh	RanGTP-Imp inh	Beta apoptosis	T cruzi repl	Vif A3G	Calb FLC	Bfl-1 A1 inh
O=C(NCc1cccnc1)/C(=C/c1ccc(-c2ccc(Cl)cc2)o1)S(=O)(=O)c1ccccc1	-52	-74	-17	16	1.8	104*	49	-2%&20%	19	1.5
c1ccc2c(c1)ccc1ncccc12	12	7	13	-3.0	-2.0	-8	-23	-3%	1	-0.6
Cc1csc(=Nc2c(C)n(C)n(-c3ccccc3)c2=O)n1Cc1ccccc1	-11	-5	2.5	3.6	3.0	-2	2	-4%&1%	11	0.9
COc1ccc(CN2CCN(S(=O)(=O)c3ccc(NC(C)=O)cc3)CC2)cc1OC	x	x	x	x	u	0	-4	2%&-6%	9	-0.1
O=C(OCC(=O)N1N=C(c2ccc(Cl)cc2)CC1c1ccco1)c1ccco1 (stereo unspecified)	8	3	10	0.8	5.9	-5	-6	-2%	4	0.2
COC(=O)[C@@H](NCc1cccc(CN[C@H](C(=O)OC)c2ccccc2)c1)c1ccccc1	-4	-2	0.9	x	3.1	x	5	x	1	0.0
CCCCNC(=S)Nc1ccccc1Cc1ccccc1	-43*	-21*	-4.3*	-1.5	0.4	19	-1	x	6	0.2
Cc1ccccc1-n1nc2c(c1NC(=O)c1ccco1)CS(=O)(=O)C2	6	12	-0.7	0.5	0.2	-6	3	x	-2	-1.7
COc1ccc(C(=O)N2CCN(S(=O)(=O)c3cc(Cl)ccc3OC)CC2)cc1	x	x	x	x	-3.3	-2	7	-4%&2%	-1	1.1
COc1cc(OC)cc(OC(=O)C2CCN(C3=NS(=O)(=O)c4ccccc43)CC2)c1	2	8	-2.7	1.3	x	-2	x	x	x	1.1
CCN(CC)CCn1c2ccccc2c2nc3ccccc3nc21	-29	-27	-2.1	4.3	0.3	30	25	-1%	-3	-1.3
O=C(NC(=S)NCCN1CCOCC1)c1cccc(Cl)c1	x	x	x	x	-0.9	-5	-5	0%	u	-3.0
CCOc1ccccc1C1CC(=O)Nc2c1c(=O)n(C)c(=O)n2C (stereo unspecified)	-4	5	-5.6	1.5	-2.4	x	-7	-3%	-3	-0.1
O=C(CN(C1CCCCC1)S(=O)(=O)c1ccc(F)cc1)NCc1ccncc1	x	x	x	x	0.9	-5	11	25%	5	1.8
O=C(C1CCCN(S(=O)(=O)Cc2ccccc2)C1)N1CCC(Cc2ccccc2)CC1 (stereo unspecified)	x	x	x	x	-0.6	5	27	2%	5	-0.2
CCC(=O)Oc1ccc2oc(=O)cc(C)c2c1	x	x	x	x	-2.7	8	-14	0%	0	-0.1

Screening results deposited in PubChem by several laboratories.

Only part of the results is shown. The share of hits here may be higher or lower than overall.
